# miR-21 reporter: qHTS Assay for Modulators of miRNAs and/orActivators of miR-21 | HeLa miR-21 FLuc reporter, luciferase, 48 h | Potency, µM (highest dose often 38.3 µM), inactives show at the top dose reporter change, positive = more light | 340,000 tested, under 10 active | AID 2288, 2010; active = well fitted rising curve with a large enough effect; inconclusive = small, poorly fitted or top-dose-only effect; inactive = no such curve, though single readings can be large or run the other way;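 further: % of control where 0% means no effect; miR-21 action dims this reporter so a rising signal means less miR-21 action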
#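 Luminescence from a firefly luciferase reporter carrying a miR-21 binding site downstream, stably expressed under a CMV promoter in HeLa cells that make miR-21 endogenously, reports miRNA modulation after 48 h compound exposure up to approximately 40uM final.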
# Rango complex inh: qHTS Assay for Inhibitors of Rango (Ran-regulated importin-beta cargo) - Importin beta complex formation; Rango CFP/YFP FRET sensor + importin beta, 45 min; Potency, µM (titrated, usually from 92.2 µM), for the others: at the top dose inhibition of complex formation; hit rate 0.031% among 340,000; AID 540263, 2011; active = rising FRET ratio curve, often small or poorly fitted; inconclusive = mostly compound fluorescence or quenching in the first reads; inactive = flat curves in all reads;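 further: potency means the concentration at half of the fitted maximal effect; 0% = DMSO wells and 100% = buffer wells lacking importin beta; nearly all actives have a fitted effect of over 15% in size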
#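 Inhibition scored from the CFP 486 nm/YFP 530 nm FRET ratio 45 min after adding 0.125 microM importin beta to 50 nM Rango biosensor preincubated 5 min with compound (room temperature, PBS with DTT, Tween-20, BSA). No-importin wells as positive control.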
# GLA inh pH 4.5: qHTS Assay for Inhibitors of Human alpha-Galactosidase at pH 4.5; Alpha-galactosidase A (Homo sapiens), P06280; purified enzyme, 4-MU-alpha-Gal fluorescence, pH 4.5; activity change, negative = inhibition, % at 105 µM; 230,000 tested, under 10 active; inconclusive = small, poorly fitted or top-dose-only inhibition, or a rising curve; inactive = flat fitted curve, though single readings scatter; no compound was filed as active;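 further: 0% = full activity with enzyme and -100% = basal without enzyme; dose as in the result columns while the protocol names 77 µM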
# Target sequence (P06280 whole entry, looked up): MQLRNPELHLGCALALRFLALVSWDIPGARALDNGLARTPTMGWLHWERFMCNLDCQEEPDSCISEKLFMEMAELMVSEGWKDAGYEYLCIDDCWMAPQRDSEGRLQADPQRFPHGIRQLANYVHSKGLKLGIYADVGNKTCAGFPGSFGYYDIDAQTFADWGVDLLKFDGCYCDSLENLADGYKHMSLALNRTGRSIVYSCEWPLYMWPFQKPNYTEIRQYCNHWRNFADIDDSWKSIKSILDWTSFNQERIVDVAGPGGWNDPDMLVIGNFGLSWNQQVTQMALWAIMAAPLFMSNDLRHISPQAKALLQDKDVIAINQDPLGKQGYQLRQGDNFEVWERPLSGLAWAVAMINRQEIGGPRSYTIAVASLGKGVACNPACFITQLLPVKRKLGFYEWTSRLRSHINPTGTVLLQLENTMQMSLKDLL
# Rango release inh: qHTS Assay for Inhibitors of RanGTP induced Rango (Ran-regulated importin-beta cargo) - Importin beta complex dissociation; hit rate 0.071% among 340,000; Biochemical FRET Rango-importin beta, RanGTP-induced dissociation; Potency, µM (highest dose often 46.1 µM), for inactives: top-dose activity change, negative = inhibition; active means falling FRET ratio curve, often poorly fitted, with flat reads before Ran was added; inconclusive means other falling curves, or compound fluorescence or quenching; inactive means flat or rising ratio curve;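 further: potency means the concentration at half of the fitted maximal effect; % of control where 0% means no effect; nearly all actives have a fitted effect of over 45% in size; -100% = wells without RanGTP and RCC1; the record marks most hits as doubtful in a second field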
#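 Two FRET readings bracket the reaction: one 5 min after compound meets Rango–importin beta, another 45 min after RanGTP-RCC1 (0.6 uM Ran, 0.2 uM RCC1, 2 mM GTP) is added. Only the second defines inhibition.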
# * hit, by the source's call; ? = inconclusive; · = no result given; & = joins results of further samples.
# The first 2 compounds, to show the layout:
SMILES,miR-21 reporter,Rango complex inh,GLA inh pH 4.5,Rango release inh
COCCNC(=O)c1c[nH]c2ccc(S(=O)(=O)Nc3ccccc3F)cc2c1=O,7.9%,-0.5%,·,-8.9%
COc1ccc([N+](=O)[O-])cc1NC(=O)C(C)OC(=O)C1CCCC1 (stereo not drawn),0.0%,2.2%,·,23.3%

# The list itself, from the first entry:
SMILES,miR-21 reporter,Rango complex inh,GLA inh pH 4.5,Rango release inh
COCCNC(=O)c1c[nH]c2ccc(S(=O)(=O)Nc3ccccc3F)cc2c1=O,7.9%,-0.5%,·,-8.9%
COc1ccc([N+](=O)[O-])cc1NC(=O)C(C)OC(=O)C1CCCC1 (stereo not drawn),0.0%,2.2%,·,23.3%
CCN(CC)CCCN1C(=O)c2oc3ccccc3c(=O)c2C1c1cccc(OC)c1OC (stereo not drawn),-6.8%,1.6%,4.8,3.4%
Cc1cccc2cc3c(N)c(C(=O)N4CCOCC4)sc3nc12,-21.2%,?,-4.1,?
Cc1ccc(C=Nc2ccccc2C(N)=O)s1,-0.8%,0.2%,-6.0,0.4%
O=S(=O)(NC1CCCCC1N1CCC(O)CC1)c1ccc(Cl)cc1 (stereo not drawn),2.7%,?,·,?
CCCC(NC(=O)C(C)NC(=O)CO/N=C1\C=C2CCC3C4CCC(C(C)=O)[C@@]4(C)CCC3[C@@]2(C)CC1)C(=O)O (stereo partly drawn),-6.6%,-1.0%,·,-5.8%
Cc1cccc(N(C(=O)c2ccc(Cl)cc2)C2CS(=O)(=O)CC2OC(=O)c2ccc(Cl)cc2)c1 (stereo not drawn),-1.9%,2.6%,-3.3,3.1%
O=C1CC(N2CCOCC2)C(=O)N1c1ccc(Cl)cc1 (stereo not drawn),6.5%,-5.6%,6.9,0.0%
COc1cc(C(=O)NCCC(=O)NC(C)C)cc(OC)c1OC,5.3%,0.7%,3.2,-13.8%
CCOC(=O)c1ccc(NC(=O)c2nc(SC)ncc2Cl)cc1,1.4%,1.0%,·,-3.0%
CCOc1ccccc1NC(=O)c1cccc(N2C(=O)CCC2=O)c1,1.6%,0.1%,·,8.7%
Cc1ccc(/C=[N+](\[O-])c2ccccc2C)o1,3.7%,-6.5%,·,-10.4%
CCOc1ccc(S(=O)(=O)NCCC(=O)N2CCCCCCC2)cc1,·,0.5%,·,15.6%
Cc1cccc(C(=O)Nc2c(C(=O)N(C)C)cnn2-c2ccccc2)c1,1.5%,1.8%,·,11.6%
Cc1cccc(N2CCN(S(=O)(=O)c3ccc4c(c3)CCN4C(=O)CCC(=O)O)CC2C)c1 (stereo not drawn),-0.7%,-0.4%,-9.0,-2.3%
O=C(CSc1ccc2nnc(-c3ccccn3)n2n1)Nc1ccccc1F,-1.2%,-0.1%,·,-11.2%
O=C(CSc1ccc(-c2ccc(-n3cccn3)cc2)nn1)Nc1ccc([N+](=O)[O-])cc1,·,3.1%,·,0.0%
CC(=O)c1ccc(S(=O)(=O)N(CCCO)Cc2cc3cc(C)ccc3[nH]c2=O)cc1,5.3%,1.9%,·,-14.0%
CC(C)Cc1nnc(NC(=O)CCC(=O)NC2CCCCCC2)s1,-2.0%,-0.8%,·,10.8%
CCN1C(=O)[C@H]2[C@H]3[C@H](O)[C@H](O)C/C(=N\OC[C@@H](C)[C@H](OCc4ccccc4)C(C)C)[C@@H]3CC[C@H]2C1=O,11.6%,·,0.6,·
CC1CCCC(C)N1C(=O)c1cc2ncc(CCCl)cn2n1 (stereo not drawn),-1.9%,-0.3%,-1.1,-7.3%
CC1(C)CC(=O)C=C(c2cccc(CO)c2)C1,·,-2.2%,·,0.0%
Cn1ncc([N+](=O)[O-])c1C(=O)Nc1ccccc1,7.9%,-1.8%,·,11.0%
COC(=O)C1=C(O)CSC1=Nc1ccccc1,0.5%,-1.0%,-2.7,0.3%
CCOc1ccc(NC(=O)CN(C)S(=O)(=O)c2cnc[nH]2)cc1,-3.2%&-9.2%,-2.5%,8.3,-19.1%
CN1C=CC2=C(C#N)C(N)C(C#N)(C#N)C(c3ccccc3)C2C1 (stereo not drawn),2.0%,?,24.2,?
CCOc1ccc(NC(=O)c2ccc(NC(=O)CN3C(=O)C(=O)N(CC(C)C)C3=O)cc2)cc1,·,-1.8%,·,0.4%
O=C(COC(=O)c1cccc(Cl)c1)NC(=O)NCc1ccccc1,·,0.8%,·,5.5%
CCOC(=O)c1c(NC(=O)CS(=O)(=O)c2cn(CC)c3ccccc23)sc2c1CCCC2,-14.7%,6.3%,-12.0,29.4%
O=C(NC(=S)NCc1ccco1)c1ccc(Br)cc1,-17.7%,-0.8%,·,-8.9%
COc1cccc(C(=O)Nc2nnc(SCC(=O)Nc3ccc(NC(C)=O)cc3)s2)c1,-2.5%,1.0%,·,-9.9%
COc1ccccc1/C=N/NC(=O)c1ccc(NC(=O)c2cccc([N+](=O)[O-])c2)cc1,-0.7%,·,0.5,·
CC1CCN(C(=O)c2ccc(N(C)S(C)(=O)=O)cc2)CC1,-5.7%,-1.1%,8.2,0.2%
O=C(O)c1cccc(NC(=O)c2ccc3c(c2)C(=O)N(Cc2ccco2)C3=O)c1,8.6%,1.3%,-4.5,-2.5%
COc1ccc(S(=O)(=O)n2nc(OC(=O)c3ccco3)cc2N)cc1,0.2%,-0.9%,-1.5,5.7%
CCN(CC)c1ccc(NC(=O)c2ccccc2)cc1S(=O)(=O)Nc1ccccc1OC,17.9%,1.5%,1.9,2.8%
CCOn1c(=O)c(-c2ccccc2)[n+]([O-])c2ccccc21,-1.7%,1.1%,·,-14.3%
CCOC(=O)c1c(C)n(C)c2ccc(O)c(CN(C)C)c12,-7.1%,-0.5%,-5.4,?
COc1ccc(CC(NC(C)=O)C(=O)NC2CCN(S(=O)(=O)c3ccc(NC(C)=O)cc3)CC2)cc1 (stereo not drawn),9.4%,-0.2%,·,11.8%
CCOC(=O)CSc1nnc(-c2ccoc2C)n1-c1ccc(OCC)cc1,0.2%,-3.1%,-18.5,-10.4%
Cc1ccc(C)n1-c1ccc(C(=O)NCc2cccnc2)cc1,-0.8%,·,9.5,·
COc1ccc2oc(C(=O)OCC(=O)N(C)Cc3ccccc3)c(C)c2c1,·,?,·,6.4%
COC(=O)c1ccc(C(=O)OC)c(NC(=O)CN(c2ccccc2)S(=O)(=O)N(C)C)c1,-1.7%&-0.2%,1.0%,-15.6,8.2%
Cc1cccc(-c2nnc(NC(=O)c3ccco3)s2)c1,-26.9%,-1.7%,·,0.6%
COc1c(S(=O)(=O)Nc2cccnc2)ccc(Cl)c1Cl,-1.0%,-1.2%,-2.0,13.0%
O=C(/C=C/c1cccc(O)c1)c1ccc(N2CCOCC2)cc1,-2.1%,?,-9.7,-6.5%
CCN1C(=O)[C@@H]2Cc3c([nH]c4ccccc34)C(c3cc(OC)c(OC)c(OC)c3)N2C1=S (stereo partly drawn),13.7%,?,·,?
CCCCCc1ccc(OCCCC[n+]2cccc(C)c2)c(CCCCC)c1,-6.4%,5.3%,20.6,8.1%
Cc1ccc(CNC(=O)C(=O)NCCC2CCCCN2S(=O)(=O)c2ccc(C)cc2)cc1 (stereo not drawn),·,-2.6%,·,17.2%
Cc1cc(C(=O)Nc2ncc(C)s2)c2ccccc2n1,9.3%,3.7%,4.2,2.6%
COc1ccccc1-n1c(C)cc(SC)c(C(C)=O)c1=S,-10.2%,-1.7%,-5.2,4.2%
CCc1nc(SCC(=O)OC(C)C)c2ccccc2n1,-10.1%,-3.2%,-14.4,-7.2%
N#Cc1cc(Oc2ccccc2)c(-n2nnc3ccccc32)cc1C#N,-13.9%,-1.3%,-1.9,12.3%
O=C(NCCCc1ccccc1)C1CC(=O)N(c2ccc3c(c2)OCCO3)C1 (stereo not drawn),-14.3%,5.1%,7.0,-14.3%
CCCn1nc(NC(=O)c2ccco2)c2cc3ccccc3nc21,10.4%,?,0.4,?
CCC(C)NC(=O)CS(=O)Cc1nc(-c2cccc(C)c2)oc1C (stereo not drawn),3.4%,-0.8%,-10.2,17.0%
CCN(c1ccccc1)c1cc(C)nc2nc(C)nn12,-5.1%,-0.3%,-11.4,7.9%
COc1ccc(NC(=O)NC(C)c2ccccc2)cc1 (stereo not drawn),-0.8%,-2.3%,·,3.9%
CCn1c(=O)c(C(=O)CN2CCN(S(=O)(=O)c3ccc(C)cc3C)CC2)c(N)n(Cc2ccccc2)c1=O,19.2%,4.2%,-15.2,1.0%
# Next part
SMILES,miR-21 reporter,Rango complex inh,GLA inh pH 4.5,Rango release inh
CCOc1ccc(C(C)NC(=O)c2cccs2)cc1OCC (stereo not drawn),·,?,·,6.8%
O=C(NCCCN1CCCC1=O)c1cccc(Oc2ccccc2)c1,0.7%,0.0%,3.8,21.0%
CN1C(=O)/C(=C/c2ccc(OCc3ccc(F)cc3)cc2)N(C)C1=S,-3.4%,?,·,?
CCOC(=O)COc1cccc2c(=O)n(CC(=O)NCCc3ccc(OC)c(OC)c3)ccc12,-3.0%,·,-6.3,·
CC(C)Oc1ccc(S(=O)(=O)N2CCOCC2)cc1NC(=O)c1ccc(N2CCCC2=O)cc1,2.7%,0.3%,·,-13.6%
Cc1cc(S(=O)(=O)n2ccnc2)c(Cl)cc1Cl,-0.6%,-3.9%,-25.9,-10.2%
COc1cccc(CN2CCN(Cc3ccc4c(NC(C)=O)cccc4n3)CC2CCO)c1 (stereo not drawn),-2.7%,-2.6%,3.6,-9.9%
COc1cccc(-c2coc3cc4oc(=O)c(CCC(=O)O)c(C)c4cc23)c1,-1.9%,-3.4%,·,-6.2%
COC(=O)c1cccc(NC(=S)Nc2ccccc2Cl)c1,-15.2%,-1.1%,-4.9,13.6%
CCOc1ccc(CNC(=O)Cn2c(=O)c3cccn3c3ccccc32)cc1,-2.2%&1.2%,7.5%,·,-6.1%
CC12CCC(C(=O)Nc3cc(Cl)ccc3Cl)(C(Br)C1=O)C2(C)C (stereo not drawn),-0.9%,2.0%,2.3,-8.0%
CCc1ccc(NC(=O)c2cnccn2)cc1,-21.9%,0.3%,·,9.4%
COc1ccc(C(=O)NC(=S)Nc2ccc(CN3CCOCC3)cc2)cc1OC,6.2%,-1.1%,2.7,8.4%
COCc1n[nH]c(=S)n1-c1ccccc1,-2.4%,1.0%,9.5,2.8%
CC(OC(=O)c1n[nH]c2ccccc12)C(=O)NC1CCCCC1C (stereo not drawn),·,5.4%,·,2.0%
Cc1cc(C)c(NC(=S)N2CCC(N(C)CC3CCCO3)CC2)c(C)c1 (stereo not drawn),1.3%,-1.2%,4.3,-9.9%
Cc1ccccc1C1c2[nH]c3ccccc3c2C[C@H]2C(=O)N(c3ccccc3C(=O)NCCN3CCOCC3)C(=O)N12 (stereo partly drawn),6.2%,?,·,-20.0%
COc1cccc(NC(=O)c2cnsn2)c1,-58.9%,0.8%,-0.4,11.9%
CCCCn1c(SCC(=O)NC2CC2)nnc1-c1ccncc1,-1.2%,-1.1%,·,-0.3%
C=C(C)COc1ccc(-c2nc(N)ncc2Oc2ccccc2OC)c(O)c1,-22.1%,-1.4%,-15.7,-0.4%
CCOc1ccc(CC(=O)NCc2ccc3c(c2)cc(C)n3C)cc1,-2.2%,?,2.9,?
O=C(Nc1cccc(C(F)(F)F)c1)c1cccnc1N1CCN(c2ccccc2)CC1,11.9%,-1.6%,-8.6,-14.7%
COc1ccc(NC2CCCN(C(=O)CCc3ccncc3)C2)cc1OC (stereo not drawn),0.1%,?,·,?
Cc1ccccc1CN1C(=O)C2(OCCCO2)c2ccccc21,-13.2%,4.6%,-3.8,22.0%
N#Cc1c(N)sc2c1CCCCCC2,-11.9%,0.9%,2.7,1.5%
COC(=O)/C(=C/Nc1cccc2ccccc12)[N+](=O)[O-],-3.6%,0.1%,-5.1,0.1%
O=C(c1ccc(NS(=O)(=O)c2ccc3[nH]c(=O)[nH]c3c2)cc1)N1CCN(c2ccccc2O)CC1,·,?,·,1.1%
CCOC12NC(=O)CC(=O)N1C(c1ccccc1)=CS2 (stereo not drawn),-35.3%,-2.5%,-1.3,16.2%

# Bioassay records from PubChem.

# These rows are one share of the data; rates above refer to the full screens.
